Vaccinia inh = Vaccinia orthopox stage-specific inhibition. Vaccinia-infected cells, mCherry/Venus stage reporter fluorescence; stronger effect = lower value; some inactives read as strong as hits. activity change (mCherry), % (no concentration beside the values). hit rate 0.01% among 89,000;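 active means mCherry past -33% and 40 or more points under the early reporter, replicates agreeing; inconclusive means past -33% without that gap or agreement; tested in A549 cells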;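 further: scaled between vehicle wells and reference inhibitor wells; 23 nL library stock went into each well; one replicate is shown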
Vaccinia inh Venus = recorded beside Vaccinia inh, whose call it bears; activity change (Venus), %; measured here: Venus reporter, other viral stage;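 negative = less Venus signal; first of two replicates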
* marks the source's active call; other numbers are inactive results; u = inconclusive; x = no result given.

SMILES	Vaccinia inh	Vaccinia inh Venus
COCC(=O)N1[C@@H](C#N)[C@@H](c2ccc(C3=CCCC3)cc2)[C@@H]1CO	15	6
Cc1ccccc1S(=O)(=O)N1CC[C@@H]2[C@@H](CO)Nc3ccc(-c4ccc(C#N)cc4)cc3[C@@H]21	u	x
CC(=O)N1CCCCN2[C@H](CO)[C@@H](c3ccc(-c4ccc(C)cc4)cc3)[C@@H]2C1	-7	-21
COc1ccccc1-c1ccc2n(c1=O)C[C@@H]1[C@@H](CO)[C@H](C(=O)NCc3ccccc3F)N[C@H]21	7	-6
CO[C@@H]1CN(C)C(=O)c2ccc(NC(=O)c3ccc4c(c3)OCO4)cc2OC[C@@H](C)N(Cc2ccc3c(c2)OCO3)C[C@H]1C	-22	-12
CCCNC[C@@H]1[C@@H](c2ccc(C3=CCCCC3)cc2)[C@@H](CO)N1C(=O)C1CCC1	-17	4
COc1ccccc1CN1CC[C@@H]2[C@H](CO)Nc3ccc(C#Cc4ccccc4)cc3[C@@H]21	u	x
O=C(C[C@H]1CC[C@@H]2[C@H](COC[C@@H](O)CN2S(=O)(=O)c2ccccc2F)O1)NCc1ccccc1Cl	4	-2
CO[C@H]1CN(C)C(=O)c2cc(NS(C)(=O)=O)ccc2OC[C@@H](C)N(C(=O)c2ccc3c(c2)OCO3)C[C@H]1C	11	7
COc1ccccc1S(=O)(=O)N[C@@H]1C=C[C@H](CC(=O)N2CCCCC2)O[C@H]1CO	9	15
CN1C(=O)c2cc(NC(=O)C3CCOCC3)ccc2OC[C@H]2O[C@@H](CC(=O)O)CC[C@@H]21	-3	0
N#C[C@@H]1[C@@H](c2ccccc2C2=CCCC2)[C@H](CO)N1C(=O)C1CCC1	9	8
CO[C@@H]1CC[C@H]2CCN(C)C(=O)[C@H](C)[C@H](OC)CN(C)C(=O)c3cccc(C#N)c3OC[C@@H]1O2	5	5
CN(C)C(=O)C[C@H]1CC[C@H]2[C@@H](COC[C@H](O)CN2CC2CCCCC2)O1	17	21
COc1ccc2c3c([nH]c2c1)[C@@H](CO)N(C(=O)Cc1ccccc1)CC31CN(C)C1	-5	-8
C[C@H](CO)N1C[C@H](C)[C@@H](CN(C)C(=O)NC2CCCCC2)OCCCC[C@H](C)Oc2ccc(NC(=O)Nc3ccccc3)cc2C1=O	8	6
CO[C@H]1CN(C)C(=O)c2cc(NS(=O)(=O)CC(F)(F)F)ccc2OC[C@@H](C)N(C)C[C@H]1C	5	7
COc1ccccc1-c1cn(CC[C@H]2CC[C@H](NC(=O)c3cnccn3)[C@@H](CO)O2)nn1	3	5
COC(=O)c1c2oc(c1C(=O)OC)C(=O)N(C)Cc1cn(nn1)C[C@@H](C)NC(=O)N[C@H](CO)CC2	4	4
N#C[C@@H]1[C@@H](c2ccc(C3=CCCCC3)cc2)[C@@H](CO)N1C(=O)c1cccc(F)c1	14	1
C[C@H]1CN([C@@H](C)CO)C(=O)c2cc(C#CCc3ccccc3)cnc2O[C@H]1CN(C)Cc1cccnc1	10	16
CCC(=O)N1[C@H](CO)[C@H]2c3ccccc3N(C(=O)c3ccc4c(c3)OCO4)C[C@H]21	1	7
C[C@H]1CCCCO[C@H](CN(C)Cc2ccccc2)[C@@H](C)CN([C@@H](C)CO)C(=O)c2cc(NC(=O)c3ccncc3)ccc2O1	-10	-13
CCCNC(=O)N1CC2(CN(Cc3cccc(OC)c3)C2)c2c([nH]c3cc(OC)ccc23)[C@@H]1CO	u	x
CC=Cc1ccc2n(c1=O)C[C@H]1[C@H](CO)[C@@H](C(=O)NCC(F)(F)F)[C@@H]2N1C(=O)C1CC1 (mixture of isomers)	6	4
CCC(=O)Nc1ccc2c(c1)C(=O)N(C)C[C@H](OC)[C@@H](C)CN(C(C)=O)[C@H](C)CO2	2	4
COc1ccc(NC(=O)Nc2ccc3c(c2)C(=O)N([C@@H](C)CO)C[C@H](C)[C@H](CN(C)C(=O)Nc2c(C)noc2C)O3)cc1	13	5
O=C(Nc1ccccc1)N1CCCCN2[C@H](C1)[C@@H](c1ccc(-c3ccccc3)cc1)[C@@H]2CO	-35	-27
N#C[C@H]1[C@@H](c2ccccc2C2=CCCC2)[C@H](CO)N1C(=O)c1cccc(F)c1	7	7
O=C(C[C@H]1CC[C@H](NC(=O)c2ccccc2)[C@H](CO)O1)NCCc1ccncc1	4	2
NCC[C@@H]1CC[C@@H](NC(=O)C2CCCCC2)[C@@H](CO)O1	13	17
CO[C@@H]1CN(C)C(=O)c2ccc(NC(=O)c3ccccc3F)cc2OC[C@@H](C)N(CC2CCOCC2)C[C@H]1C	-19	-16
CN(C)C(=O)C[C@H]1CC[C@H]2[C@@H](COC[C@@H](O)CN2Cc2nccs2)O1	8	2
CCCC(=O)Nc1ccc2c(c1)OC[C@H](C)N(Cc1ccccc1F)C[C@H](C)[C@H](OC)CN(C)C2=O	-4	0
O=C(C[C@H]1C[C@H]2c3cc(NC(=O)CC4CC4)ccc3O[C@H]2[C@@H](CO)O1)NCc1ccc(-c2ccccc2)cc1	8	1
C[C@@H]1CN([C@@H](C)CO)C(=O)Cc2cc(NC(=O)Nc3ccc(F)cc3)ccc2O[C@H]1CN(C)C(=O)Nc1ccc(F)cc1	13	6
O=C(Nc1ccccc1F)N1C[C@@H]2[C@H](c3ccccc31)[C@H](CO)N2C(=O)C1CCOCC1	6	13
CCC(=O)N1C[C@H](C)[C@H](OC)CN(C)C(=O)c2cc(NC(=O)c3ccc(F)cc3)ccc2OC[C@@H]1C	-12	-11
COc1ccc(CN(C)C[C@H]2Oc3ccc(NC(=O)Nc4ccc(OC)cc4)cc3CC(=O)N([C@H](C)CO)C[C@H]2C)cc1	-13	-9
O=C(C[C@@H]1CC[C@@H]2[C@H](COC[C@H](O)CN2C(=O)c2ccccc2)O1)NCCCN1CCOCC1	9	16
COc1cccc(S(=O)(=O)N[C@@H]2CC[C@H](CCn3cc(-c4ccccc4)nn3)O[C@H]2CO)c1	-13	-9
CC(=O)N1[C@@H](CO)[C@@H](c2ccccc2)[C@@H]1CN(C)C(=O)c1ccccc1F	18	9
O=C(C[C@H]1C[C@H]2c3cc(NS(=O)(=O)c4ccccc4)ccc3O[C@H]2[C@@H](CO)O1)NCC(F)(F)F	-2	4
COCC#Cc1ccc([C@@H]2[C@H]3CN(S(=O)(=O)c4ccc(OC)cc4)CCCCN3[C@H]2CO)cc1	-9	-9
CC(=O)N(C)C[C@@H]1Oc2ncc(-c3cncnc3)cc2C(=O)N([C@@H](C)CO)C[C@H]1C	26	22
CCO[C@H]1OC(C(=O)N2CCCCCCC2)=C[C@@H](c2ccc(C(F)(F)F)cc2)[C@@H]1CCCO	6	10
CC(C)CC#Cc1ccc2c(c1)O[C@@H](CN(C)C(=O)NC(C)C)[C@@H](C)CN([C@H](C)CO)S2(=O)=O	-24	-10
COc1ccccc1C(=O)Nc1ccc2c(c1)C(=O)N(C)C[C@@H](OC)[C@@H](C)CN[C@@H](C)CO2	-1	0
Cc1noc(C)c1S(=O)(=O)N(C)C[C@@H]1OCCCC[C@@H](C)Oc2ccc(NS(=O)(=O)c3cccs3)cc2C(=O)N([C@@H](C)CO)C[C@H]1C	-27	-21
CCCC(=O)Nc1ccc2c(c1)OC[C@H](C)N(CC1CCCC1)C[C@@H](C)[C@H](OC)CN(C)C2=O	-5	-4
CCC(=O)N1CC(=O)N2[C@H](C1)[C@@H](c1ccc(C#CC3CCCC3)cc1)[C@@H]2CO	-28	-22
COc1ccc(S(=O)(=O)N(C)C[C@H]2Oc3cc(C#CC4CC4)ccc3S(=O)(=O)N([C@H](C)CO)C[C@H]2C)cc1	u	x
COCCNC(=O)C[C@H]1C[C@H]2c3cc(NS(=O)(=O)c4ccccc4)ccc3O[C@H]2[C@H](CO)O1	-1	-1
C[C@H]1CN([C@@H](C)CO)C(=O)c2cc(C#Cc3ccccc3F)cnc2O[C@H]1CN(C)C(=O)c1ccc2c(c1)OCO2	u	x
CO[C@@H]1CN(C)C(=O)c2cc(NS(=O)(=O)c3ccccc3)ccc2OC[C@H](C)N(Cc2ccccn2)C[C@H]1C	2	1
CCCC(=O)Nc1ccc2c(c1)C(=O)N(C)C[C@@H](OC)[C@@H](C)CN(CCC(F)(F)F)[C@H](C)CO2	-11	-5
COc1ccccc1NC(=O)N[C@@H]1CC[C@@H](CC(=O)NCc2ccc(Cl)c(Cl)c2)O[C@@H]1CO	-14	-7
O=C(NC[C@@H]1CC[C@@H]2[C@@H](CN2Cc2cccc(Cl)c2)O1)C1CC1	0	5
COc1ccc2c3c([nH]c2c1)[C@@H](CO)N(C(=O)C1CCC1)CC31CCN(C(=O)NC(C)C)CC1	10	1
C[C@H]1CN([C@@H](C)CO)C(=O)c2cc(C#CC3CCCCC3)cnc2O[C@H]1CN(C)C(=O)c1ccncc1	8	-4

Part of the list above, comma-delimited.
SMILES,Vaccinia inh,Vaccinia inh Venus
N#C[C@@H]1[C@@H](c2ccc(C3=CCCCC3)cc2)[C@@H](CO)N1C(=O)c1cccc(F)c1,14,1
C[C@H]1CN([C@@H](C)CO)C(=O)c2cc(C#CCc3ccccc3)cnc2O[C@H]1CN(C)Cc1cccnc1,10,16
CCC(=O)N1[C@H](CO)[C@H]2c3ccccc3N(C(=O)c3ccc4c(c3)OCO4)C[C@H]21,1,7
C[C@H]1CCCCO[C@H](CN(C)Cc2ccccc2)[C@@H](C)CN([C@@H](C)CO)C(=O)c2cc(NC(=O)c3ccncc3)ccc2O1,-10,-13
CCCNC(=O)N1CC2(CN(Cc3cccc(OC)c3)C2)c2c([nH]c3cc(OC)ccc23)[C@@H]1CO,u,x
CC=Cc1ccc2n(c1=O)C[C@H]1[C@H](CO)[C@@H](C(=O)NCC(F)(F)F)[C@@H]2N1C(=O)C1CC1 (mixture of isomers),6,4
CCC(=O)Nc1ccc2c(c1)C(=O)N(C)C[C@H](OC)[C@@H](C)CN(C(C)=O)[C@H](C)CO2,2,4
COc1ccc(NC(=O)Nc2ccc3c(c2)C(=O)N([C@@H](C)CO)C[C@H](C)[C@H](CN(C)C(=O)Nc2c(C)noc2C)O3)cc1,13,5
O=C(Nc1ccccc1)N1CCCCN2[C@H](C1)[C@@H](c1ccc(-c3ccccc3)cc1)[C@@H]2CO,-35,-27
N#C[C@H]1[C@@H](c2ccccc2C2=CCCC2)[C@H](CO)N1C(=O)c1cccc(F)c1,7,7

Carrying on:
SMILES	Vaccinia inh	Vaccinia inh Venus
CCC(=O)N1CC2(CCN(C(=O)Nc3ccccc3F)CC2)c2c([nH]c3cc(OC)ccc23)[C@H]1CO	-12	-8
C[C@H]1CN([C@@H](C)CO)C(=O)c2cc(/C=C/c3ccccc3)cnc2O[C@@H]1CN(C)Cc1cncnc1	-18	-16
CCCNC(=O)N(C)C[C@@H]1Oc2cc(C#CC(C)C)ccc2S(=O)(=O)N([C@H](C)CO)C[C@@H]1C	-16	-12
CC(=O)N1[C@@H]2c3ccc(-c4ccccc4)c(=O)n3C[C@H]1[C@H](CO)[C@H]2C(=O)NCCCN1CCOCC1	24	20
C[C@@H]1CCCCO[C@H](CN(C)S(=O)(=O)c2ccccc2)[C@H](C)CN([C@H](C)CO)C(=O)c2cc(NS(=O)(=O)c3ccc(F)cc3)ccc2O1	u	x
COc1ccc(S(=O)(=O)N(C)C[C@@H]2OCCCC[C@@H](C)Oc3ccc(NC(=O)Nc4ccc(F)cc4)cc3C(=O)N([C@H](C)CO)C[C@@H]2C)cc1	12	3
C[C@H](CO)N1C[C@H](C)[C@@H](CN(C)S(=O)(=O)c2ccc(F)cc2)Oc2ccc(NC(=O)CCCN(C)C)cc2C1=O	7	1
COc1ccc(C#Cc2ccc([C@H]3[C@@H](CO)N4CCCCN(C(=O)Cc5ccncc5)C[C@@H]34)cc2)cc1	-33	-12
C[C@@H]1CN([C@H](C)CO)C(=O)c2cccc(NS(=O)(=O)c3ccc(Cl)cc3)c2O[C@@H]1CN(C)S(=O)(=O)c1ccc(Cl)cc1	-3	0
C[C@H](CO)N1C[C@H](C)[C@@H](CN(C)Cc2ccncc2)Oc2c(NC(=O)c3ccncc3)cccc2C1=O	3	-1
C[C@@H]1CN([C@@H](C)CO)C(=O)c2cc(NS(=O)(=O)c3ccc(Cl)cc3)ccc2O[C@@H](C)CCCCO[C@H]1CN(C)S(=O)(=O)c1cn(C)cn1	12	17
C[C@@H]1CN([C@@H](C)CO)C(=O)c2ccccc2-c2ccccc2CO[C@H]1CN(C)C(=O)NC1CCCCC1	7	2
O=C(C[C@@H]1C=C[C@@H](NS(=O)(=O)c2ccccc2)[C@@H](CO)O1)NCc1ccc(Cl)c(Cl)c1	-4	5
O=C(NCCCN1CCOCC1)[C@H]1N[C@H]2c3ccc(C4=CCCC4)c(=O)n3C[C@H]2[C@@H]1CO	11	5
Cc1noc(C)c1NC(=O)N(C)C[C@@H]1Oc2ccc(NC(=O)Nc3ccc4c(c3)OCO4)cc2C(=O)N([C@@H](C)CO)C[C@@H]1C	6	4
N#C[C@H]1[C@H](c2ccc(C#CC3CCCC3)cc2)[C@@H](CO)N1C(=O)Nc1ccc(F)cc1	u	x
C[C@H]1CN([C@@H](C)CO)C(=O)c2cc(NS(C)(=O)=O)ccc2O[C@H]1CN(C)Cc1ccc(C(F)(F)F)cc1	8	9
CCCNC(=O)C[C@H]1CC[C@@H]2[C@@H](COc3ccc(NC(=O)NCC)cc3C(=O)N2C)O1	-1	-6
CCCN(C)C[C@H]1OCCCC[C@H](C)Oc2ccc(N(C)C)cc2C(=O)N([C@H](C)CO)C[C@H]1C	0	-2
C[C@H]1CN([C@@H](C)CO)C(=O)Cc2cc(NS(=O)(=O)c3ccc(Cl)cc3)ccc2O[C@H]1CN(C)Cc1ccc(C(F)(F)F)cc1	u	x
COc1ccc(S(=O)(=O)Nc2ccc3c(c2)C(=O)N([C@H](C)CO)C[C@H](C)[C@H](CN(C)Cc2ccc4c(c2)OCO4)OCCCC[C@H](C)O3)cc1	u	x
O=C(C[C@H]1CC[C@@H]2[C@H](COC[C@@H](O)CN2S(=O)(=O)c2ccc(Cl)cc2)O1)NCc1ccc(Cl)c(Cl)c1	u	x

Bioassay records (PubChem)

Some of the compounds tested; count on the stated rates, not on these rows.
